HIV Env fusion = blocks HIV Env-driven cell-cell fusion; HeLa-JRFL Env/CEM21 cell fusion, luciferase; inhibition, % at 12.3 µM; 360,000 compounds, 1.1% hits; AID 651610;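 active = mean replicate inhibition score of at least 50 and every replicate individually at or above 50; inconclusive = only one of the two criteria met; inactive = mean below 50 and not all replicates reaching 50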;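 note: 0% = plate neutral controls and 100% = maraviroc near 300 nM; one replicate is shown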
eIF4H FP inh = inhibitors of RNA binding by human eIF4H | 290,000 compounds, 0.94% hits | inhibition, % at 35 µM | Q15056 | eIF4H fluorescence polarization binding assay;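 active = 50% or more with normal probe brightness, or confirmed in later tests; inconclusive = above 50% with abnormal brightness, or retests that disagree; inactive = below 50% or failed in later tests; about a fifth of its hits are not listed in these tables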;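 note: calls also rest on retests at 20 µM and on dose response follow-up; 0% = protein and probe with vehicle and 100% = probe without protein; strong numbers were not always called active; many hits fall short of the cut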
UUG fidelity = modulators of start codon recognition fidelity in yeast; S. cerevisiae UUG-firefly luciferase reporter, luminescence/redox ratio; activity score, % at 18.7 µM; 350,000 compounds, 0.13% hits;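 active = replicate mean at a twofold rise or more, about +100% in these data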;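 note: firefly luciferase made from a UUG start codon reports start codon fidelity; reporter light over untreated wells divided by growth signal over untreated wells; some hits fall short of that in this replicate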
PABP polyA inh = PABP-poly(A) binding inhibition; P11940; PABP-poly(A) RNA binding, fluorescence polarization; inhibition, % at 35 µM; 290,000 compounds, 1% hits;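 active = 50% or more with normal probe brightness, or confirmed in later tests; inconclusive = above 50% with abnormal brightness, or retests that disagree; inactive = below 50% or failed in later tests; about a fifth of its hits are not listed in these tables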;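 note: calls also rest on retests at 20 µM and on dose response follow-up; controls were probe without protein and protein plus probe with vehicle; some compounds called inactive have numbers as strong as hits; many hits fall short of the cut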
MT1-MMP act inh = MT1-MMP (human) activation inhibition; GFP/RFP ratio change, % at 20 µM; AID 651647; 360,000 compounds, 0.061% hits; HT1080 RFP-PRO-GFP cells, GFP/RFP ratio fluorescence, overnight; percent of plate control window, DMSO zero; P50281;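 active = GFP/RFP ratio change of at least 30% with cell ATP level not reduced by more than half and red fluorescence within 50% of control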; note: strong numbers were not always called active
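Assay system: HT1080 RFP-PRO-GFP cells | Dosing: 20 µM single dose, 1% DMSO | Incubation: Cells overnight before dosing, compound overnight, 37 °C, 5% CO2 | Evaluation: GFP/RFP fluorescence ratio | Control set: DMSO-only wells and HT1080 RFP-L50D-GFP cell wells as references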
Rce1 inh = yeast Ras-converting enzyme inhibition; yeast membranes, quenched prenylated peptide cleavage fluorescence; 290,000 compounds, 0.27% hits; Q03530; calls only; AID 2563;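 active = fall in fluorescence gain of 50% or more versus controls, with final raw signal at or below 3038400; inconclusive = same 50% fall but final raw signal above 3038400; inactive = fall in fluorescence gain under 50%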;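 note: plate controls were neutral control wells for no effect and wells lacking membranes for full effect; tested at 10 µM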
Target sequence (Q03530 whole entry, looked up): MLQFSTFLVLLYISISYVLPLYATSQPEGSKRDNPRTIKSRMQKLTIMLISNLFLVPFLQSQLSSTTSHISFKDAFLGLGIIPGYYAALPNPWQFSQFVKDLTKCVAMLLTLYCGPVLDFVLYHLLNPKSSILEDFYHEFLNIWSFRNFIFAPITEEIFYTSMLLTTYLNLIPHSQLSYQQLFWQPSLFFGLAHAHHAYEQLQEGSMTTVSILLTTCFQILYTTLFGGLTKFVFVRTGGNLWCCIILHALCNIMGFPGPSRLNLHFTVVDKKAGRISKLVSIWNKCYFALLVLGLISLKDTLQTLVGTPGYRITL
CSC inhib = blocks cancer stem cells; cancer stem cell-like cells viability, luminescence; AID 2717; inhibition, % at 7.5 µM; 300,000 compounds, 1.1% hits;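 active = mean at 75% or more and at least half the replicates too; inconclusive = mean and replicates disagree; tested in HMLE shEcad cells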;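 note: 0% = median of negative and 100% = median of positive control wells; the first replicate is given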
eIF4H FP inh retest = also measured in eIF4H FP inh; calls as there; inhibition, %; compound at 20 µM; confirmation average;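 mean of two retest wells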
PABP polyA inh retest = second read-out of PABP polyA inh, no call of its own (marks repeat the call); inhibition, %; compound at 20 µM; confirmation repeats;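 mean of two retest wells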
MT1-MMP act inh RFP = second read-out of MT1-MMP act inh, no call of its own (marks repeat the call); RFP signal change, %; measured here: RFP expression control read;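 0 = vehicle wells; hits needed this value within 50% of zero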
* = called active by the depositor; i = inactive; ? = inconclusive; · = no result given; & = joins results of further samples. A portion of the library; the hit share may differ from the screen's.

SMILES | HIV Env fusion | eIF4H FP inh | UUG fidelity | PABP polyA inh | MT1-MMP act inh | MT1-MMP act inh RFP | Rce1 inh | CSC inhib | others
Cc1cc([N+](=O)[O-])c2[nH]c(C(=O)N/N=C/c3ccccc3C(=O)O)c(-c3ccccc3)c2c1 | -11 | 10 | 3 | 7 | -1 | 0 | i | ·
CCOC(=O)c1sc(=NC(=O)c2ccc(F)cc2)n(C)c1C | -46 | -9 | -18 | 1 | 0 | 6 | i | -5
CC(C)c1ccc(/C=C/C(=O)NC2=NCCS2)cc1 | · | -3 | · | -5 | · | · | i | ?
CCn1c(SCc2ccccc2)nc2cc(S(N)(=O)=O)ccc21 | 0 | -6 | 4 | 2 | 2 | -4 | · | -16
CCOC(=O)N1CCN(C(=O)COC(=O)c2ccc([N+](=O)[O-])cc2Cl)CC1 | 1 | · | -6 | · | 3 | 5 | · | ·
CCOc1ccc(NC(=O)CCC(=O)c2ccc(-c3ccccc3)cc2)cc1 | · | 3 | · | 0 | -2 | -3 | i | 3
O=C(NC1CCCCC1)c1cc(-c2cccc(Cl)c2)on1 | -35 | 3 | -12 | 4 | -4 | -3 | i | 5
CCc1nc(SCC(=O)Nc2nc3c(s2)CCCC3)c2ccccc2n1 | -43 | -8 | -8 | 3 | 0 | 1 | i | ·
CCOc1ccc(C(=O)N2CCCC2)cc1 | · | -5 | -19 | 18 | 7 | 5 | i | 9
Cc1cc(C)c2cc3c(N)c(C(=O)N4CCc5ccccc5C4)sc3nc2c1 | · | -7 | -32 | -4 | -1 | 4 | i | ·
CC(C)(C)NC(=O)N1CCN(c2nc(-c3ccccc3)ns2)CC1 | -11 | 4 | -13 | -12 | 5 | -9 | i | -4
Cc1nn(C(C)C(=O)NC(C)CCc2ccccc2)c(=O)c2cc3occc3n12 (centres undefined) | 1 | -3 | -3 | 0 | 0 | 1 | i | 8
Cc1cc(C)c(C)c(S(=O)(=O)Nc2cccc(-n3cnnn3)c2)c1C | -1 | -7 | · | -2 | 3 | -7 | i | 1
Cc1ccc(CNc2nc(C)c(C(=O)N(C)C)s2)cc1 | 7 | 3 | -6 | -6 | -1 | -1 | · | -4
CN1CC(c2ccccn2)C2(SC(=S)N(Cc3ccccc3)C2=O)C12C(=O)Nc1ccccc12 (centres undefined) | -5 | 1 | -1 | 3 | 2 | 6 | i | 28
Cc1c(C(=O)N2CCOCC2)oc2ccc(Br)cc12 | -92 | · | -9 | · | 3 | 1 | i | -2
COC(=O)c1ccc(C(=S)NCC2(N(C)C)CCCCC2)cc1 | -2 | -5 | -8 | -7 | 0 | 2 | i | 0
COc1cccc(NC(=O)c2cnn(-c3ccccc3)c2C)c1 | -80 | -1 | -41 | 1 | 11 | -5 | i | 4
O=C(Nc1ccccc1)N(O)c1ccc(Cl)cc1 | · | -3 | -19 | -5 | 3 | 2 | i | -4
COc1ccc(NC(=O)c2nc(C)c(C3(C)CC(c4ccccc4)=NO3)s2)cc1 (centres undefined) | -303 | 1 | -3 | 8 | 1 | -14 | i | 64
CC(C)OP(=O)(OC(C)C)C(O)c1ccc2c(c1)OCO2 (centres undefined) | 15 | -8 | · | 6 | 2 | 5 | i | -6
CSc1ccccc1NC(=O)Nc1ccccc1Cl | -38 | 17 | -18 | 14 | -3 | -5 | i | 3
CC(C)(C)C1=Nn2c(nnc2-c2n[nH]c3c2CCC3)SC1 | · | 6 | -12 | 12 | -8 | -3 | · | -9
O=C1OCc2cc(NC(=O)C3CCCO3)ccc21 (centres undefined) | -41 | -2 | -24 | 6 | 5 | 0 | i | -11
Clc1ccc(Nc2nc(C3CC3)cs2)cc1 | -48 | -15 | -18 | 3 | -1 | -1 | i | 13
CCOC(=O)Cn1c(-c2ccc(OC)cc2)c(-c2ccc(OC)cc2)nnc1=O | -9 | 0 | 14 | 0 | -2 | 2 | i | -11
O=C(NCCc1ccc2c(c1)OCCO2)c1ccccc1F | · | -8 | · | 4 | -5 | -6 | i | 6
COc1ccccc1NC(=O)C1CCCN(C(=O)NCc2ccccc2)C1 (centres undefined) | 13 | -7 | -11 | 14 | 1 | 4 | i | -11
CCC1C(=O)Nc2ccccc2N1C(=O)c1ccc(Cl)nc1 (centres undefined) | -4 | -4 | · | 3 | -10 | 1 | i | -21
Fc1ccc(NC(=S)Nc2nccs2)cc1 | -13 | 2 | · | -3 | -3 | -18 | i | 19
O=C(O)CCc1nc2cc(Cl)ccc2n(Cc2ccccc2)c1=O | 3 | 12 | · | -3 | -4 | 1 | i | -8
CCCN1Cc2cccc(C(=O)NCCc3cccc(C)c3)c2C1=O | 13 | 3 | 3 | -2 | 0 | 0 | i | -10
CCOC(=O)c1cccc(NC(=O)CNC(=O)C2CCCCC2)c1 | · | -12 | -9 | -16 | 5 | 4 | i | 14
COC(=O)CNc1nc(Cl)nc(NC2CCCCC2)n1 | -290 | -4 | -3 | -4 | -4 | -4 | i | -21
CC1(C)CC(=O)C(C=NCc2ccccn2)=C(O)C1 | · | 3 | -21 | 4 | 2 | 3 | i | -1
CC1CC(=O)N(CC(=O)Nc2ccc3c(c2)OCO3)c2ccccc2S1 (centres undefined) | -10 | -7 | -9 | -1 | 0 | 0 | i | -13
CN(C)c1ccc(-c2ccnc3c2CC(C)(C(=O)Nc2cccc(Oc4ccccc4)c2)O3)cc1 (centres undefined) | 19 | · | -16 | · | 1 | 6 | · | ·
CC(C)(C)OC(=O)N1Cc2ccccc2C[C@H]1C(=O)NCC(=O)NCC1CCCO1 (some centres undefined) | 9 | -17 | -15 | -4 | 0 | 2 | i | -5
COc1cccc(/C=C/c2[nH]c(=O)[nH]c(=O)c2[N+](=O)[O-])c1O | 6 | 0 | · | 33 | -2 | -1 | i | -2
O=C(Nc1c(C(=O)N2CCCCC2)cnn1-c1ccccc1)c1ccccc1 | 4 | 1 | -12 | 4 | 0 | 6 | i | -1
CN(CC(=O)Nc1ccc(Cl)cc1)C(=O)CCC1CCCC1 | 2 | -9 | -6 | -2 | -1 | -1 | i | 0
CCOc1ccccc1N(C(=O)c1snc(C(N)=O)c1N)C(C(=O)NCC1CCCO1)c1ccc2ncccc2c1 (centres undefined) | -4 | 8 | 15 | 12 | -3 | 0 | i | 2
O=[N+]([O-])c1ccc(O)c(CSc2nnnn2-c2ccccc2)c1 | -33 | 6 | -21 | 5 | 3 | 3 | i | -10
CC(C)N(C(=O)CN1C(=O)NC2(CCCCCC2)C1=O)C(C)C | · | -2 | · | -8 | 1 | 3 | i | -10
Cc1noc(C)c1S(=O)(=O)N(C)C[C@H]1Oc2c(NC(=O)C3CCCCC3)cccc2C(=O)N([C@H](C)CO)C[C@@H]1C | -3 | · | 1 | · | -2 | -2 | · | -26
CSc1nc(N)nc(SCC(=O)CC(=O)OC(C)C)c1C#N | -7 | 48 | -4 | 57 | -2 | 4 | i | 3 | eIF4H FP inh retest=5;PABP polyA inh retest=3
CCN1CN(CCc2ccccc2)CNC1=S | 10 | -4 | · | 2 | 4 | 4 | i | -8
O=C(CN(Cc1ccco1)C(=O)c1ccc(N2CCCC2=O)cc1)Nc1ccccc1C(F)(F)F | · | · | · | · | -1 | -3 | i | -6
COc1ccc(OC)c(NC(=O)c2cc3c(Cl)nc4ccccc4c3s2)c1 | 8 | 7 | · | -8 | 7 | 4 | i | -2
N#CCC(=O)NNc1c([N+](=O)[O-])cc(C(F)(F)F)cc1[N+](=O)[O-] | 9 | -5 | -12 | -6 | 12 | 1 | i | -1
NC(=O)c1cc(S(=O)(=O)N2CCN(c3ccc([N+](=O)[O-])cc3)CC2)cs1 | -13 | -5 | 1 | 10 | -4 | -19 | i | -1
CSC(=NC1CCCCC1)NS(=O)(=O)c1ccccc1 | 6 | -4 | -1 | -2 | 0&4 | -4&-1 | i | -13
CN(CC(=O)Nc1cccc(F)c1)C(=O)CC1CC2CCC1C2 (centres undefined) | · | -7 | -19 | -2 | 1 | 0 | i | 4
Cc1ccc(S(=O)(=O)N[C@@H](CC(C)C)C(=O)NCc2ccco2)cc1 | -12 | -3 | -5 | 0 | 3 | 0 | i | -13
COc1cccc(NC(=O)CN(C)C(=O)c2c(C)nn(-c3ccccc3)c2Cl)c1 | · | · | 5 | · | 8 | -5 | · | -6
COCCNC(=O)Cn1cc(C(=O)c2cccs2)c2ccccc21 | · | · | -6 | · | -1 | 2 | i | -7
O=C(NCCc1ccccc1)C1CCCN(c2nc3ccccc3s2)C1 (centres undefined) | 1 | -2 | -2 | -1 | -3 | -1 | i | ·
COc1ccc(CNC(=O)CSc2nnc(-c3cccnc3)n2N)cc1 | -4 | 22 | -8 | 10 | 0 | 5 | i | 0

Molecules shown so far containing an aryl methoxy group:
SMILES | HIV Env fusion | eIF4H FP inh | UUG fidelity | PABP polyA inh | MT1-MMP act inh | MT1-MMP act inh RFP | Rce1 inh | CSC inhib | others
COc1cccc(NC(=O)c2cnn(-c3ccccc3)c2C)c1 | -80 | -1 | -41 | 1 | 11 | -5 | i | 4
COc1ccc(NC(=O)c2nc(C)c(C3(C)CC(c4ccccc4)=NO3)s2)cc1 (centres undefined) | -303 | 1 | -3 | 8 | 1 | -14 | i | 64
CCOC(=O)Cn1c(-c2ccc(OC)cc2)c(-c2ccc(OC)cc2)nnc1=O | -9 | 0 | 14 | 0 | -2 | 2 | i | -11
COc1ccccc1NC(=O)C1CCCN(C(=O)NCc2ccccc2)C1 (centres undefined) | 13 | -7 | -11 | 14 | 1 | 4 | i | -11
COc1cccc(/C=C/c2[nH]c(=O)[nH]c(=O)c2[N+](=O)[O-])c1O | 6 | 0 | · | 33 | -2 | -1 | i | -2
COc1ccc(OC)c(NC(=O)c2cc3c(Cl)nc4ccccc4c3s2)c1 | 8 | 7 | · | -8 | 7 | 4 | i | -2
COc1cccc(NC(=O)CN(C)C(=O)c2c(C)nn(-c3ccccc3)c2Cl)c1 | · | · | 5 | · | 8 | -5 | · | -6
COc1ccc(CNC(=O)CSc2nnc(-c3cccnc3)n2N)cc1 | -4 | 22 | -8 | 10 | 0 | 5 | i | 0
